Assay outcomes (PubChem BioAssay)
2A Renilla: lowers the Renilla signal of an FMDV 2A StopGo reporter | HEK cells with a luciferase reporter of 2A StopGo recoding | Potency, µM (doses to about 57.5 µM), for inactives: at the top dose signal change, negative = less light | 120,000 tested, 0.32% active | AID 1745857; active means well fitted falling curve with a large enough effect; inconclusive means small, poorly fitted or top-dose-only effect; inactive means no such curve, though single readings can be large or run the other way; note: nearly all actives have a fitted effect of over 55% in size; overnight with compound
StopGo FLuc: lowers the firefly signal of an FMDV 2A StopGo reporter. HEK cells with a luciferase reporter of 2A StopGo recoding. 120,000 tested, 0.23% active. Potency, µM (titrated, usually from 57.5 µM), for the others: top-dose signal change, negative = less light. AID 1745856; active = well fitted falling curve with a large enough effect; inconclusive = small, poorly fitted or top-dose-only effect; inactive = no such curve, though single readings can be large or run the other way; note: nearly all actives have a fitted effect of over 60% in size; overnight with compound
The depositor's hits bear a star; u = inconclusive; & = joins results of further samples; [ ] = dose if it differs, or a comment. % is set by controls: 0 for no effect and ±100 for the full control effect; potency is the fitted concentration of half-maximal effect.

SMILES | 2A Renilla | StopGo FLuc
Cc1cc(C)n(-c2nc3c(c(=O)n(CCc4ccccc4)c(=O)n3C)n2CCC(C)C)n1 | 5µM* | u
CCOc1ccccc1NC(=O)c1c(NC(=O)C(C)Oc2cccc(Cl)c2)sc2c1CCCCC2 (stereo not given) | 6% | -10%
COc1cc2c(=O)n(CCC(=O)NCC3CCCO3)c(=O)n(CC(=O)Nc3ccccc3C)c2cc1OC (stereo not given) | -16% | -14%
O=C(Nc1cccc(CN2CCOC2=O)c1)N1CCOCC1 | 14% | -5%
COc1ccc(-c2noc(CSc3nnc(-c4ccncc4)n3-c3ccc(C)cc3)n2)cc1OC | 13% | -11%
CC(=O)Nc1ccc(NC(=O)C(C)Sc2nc3ccc(Cl)cc3c(=O)n2CC(C)C)cc1 (stereo not given) | 10% | 24%
CCOC(=O)N1CCN(c2nc(C)c3c(n2)CC(c2ccc(Cl)cc2)CC3=O)CC1 (stereo not given) | -1% | 0%
CC(C)NC(=O)c1cn(-c2ccccc2)nc1-c1cccnc1 | -7% | 1%
O=C(CN1C(=O)COc2ccc(S(=O)(=O)N3CCOCC3)cc21)N1CCN(c2cccc(Cl)c2)CC1 | -6% | -2%
COc1ccc(-c2nc3sc(CCNC(=O)C(=O)Nc4c(C)cccc4C)c(C)n3n2)cc1 | -12% | -14%
CCc1ccc(-c2cc(C(=O)NCc3ccco3)c3ccccc3n2)s1 | 43%[activator] | 127%[activator]
COc1cccc(C(=O)Nc2nc(-c3nnn(-c4cc(C)ccc4C)c3C)ns2)c1 | u | -9%
CCCN1CCN(CCCNC(=O)c2ccc3nc(Cc4ccccc4)oc3c2)CC1 | -11% | -5%
CCOc1cccc2cc(-c3csc(Nc4ccc(OC)cc4OC)n3)c(=O)oc12 | 0% | 8%
COc1ccc(CCn2c(=O)c3cccnc3n(CC(=O)Nc3c(C)cc(C)cc3C)c2=O)cc1OC | -7% | -12%
Cc1c(CC(=O)NCc2ccccc2Cl)c(=O)oc2cc(O)ccc12 | 31%[activator] | 50%[activator]
CC(C)NC(=O)C1CCCN(c2ncnc3c2nc2n3CCCCC2)C1 (stereo not given) | -15% | -16%
COc1ccc(C(=O)Cc2ccccc2OC(=O)c2ccccc2)cc1 | 51%[activator] | 117%[activator]
COc1cc(NC(=O)Cn2c(SCc3cccc(C)c3)nc3ccncc32)cc(OC)c1 | -2% | 16%
CCCCNC(=O)COC(=O)c1cc(-c2cccs2)nc2ccccc12 | -12% | 12%
CC(C)c1ccc(C2=NN(c3ccccc3)C(=O)CC2)cc1 | 13% | 64%[activator]
O=C(O)c1ccc(N2CCOCC2)nc1 | 0% | -7%
CCOC(=O)c1oc2cc(OC(=O)c3cccc(OC)c3)ccc2c(=O)c1-c1ccc(OC)cc1 | -3% | 8%
CCCCCOC(=O)CSc1nc2sc3c(c2c(=O)n1-c1ccccc1)CC(C)(CC)OC3 (stereo not given) | -13% | 0%
CS(=O)(=O)c1ccc(NC(=O)C(c2ccccc2)c2ccccc2)cc1 | 6% | 12%
SMILES | 2A Renilla | StopGo FLuc
O=C(OCc1cc(=O)n2nc(C3CC3)sc2n1)c1ccc(NC(=O)c2ccccc2F)cc1 | -10%&-5% | 1%&-19%
COc1ccc(S(=O)(=O)c2c(C)c(C)n(CC(C)C)c2NC(=O)C2CCCO2)cc1 (stereo not given) | 27% | -1%
COc1ccccc1NC(=O)Cn1nnc(C(=O)Nc2ccccc2Br)c1N | 8% | -4%
COc1ccc(CCNC(=O)Cn2nc(C)n3c(cc4occc43)c2=O)cc1OC | 0% | 27%
O=C(O)c1[se]c2ccccc2c1Br | -10% | 0%
Cc1ccc(C)c(N2CCN(C(=O)CS(=O)(=O)c3cccc4nsnc34)CC2)c1 | -6% | 12%
COc1ccccc1C(CNC(=O)CCc1nc(-c2ccsc2)no1)N1CCCC1 (stereo not given) | -10% | -9%
O=C(NC1CCCC1)c1sc2ccccc2c1Cl | 47%[activator] | 0%
O=C1CCCC2=C1C(c1ccccc1)CC(=O)N2c1ccccc1F (stereo not given) | 21% | 10%
Cc1ccccc1-n1nnnc1C(C)(C)NCc1ccccc1 | 33%[activator] | -7%
Cn1nnnc1SCCNCc1cc(Br)ccc1OCc1ccccc1Cl | u | u
CC(C)NC(=O)C(C#N)C(=O)c1cccc(NC(=O)NC2CC2)c1 (stereo not given) | 8% | 1%
Cc1cc(C)c(S(=O)(=O)N2CCN(Cc3coc(-c4cccs4)n3)CC2)c(C)c1 | u | u
COc1ccc2c(c1)c1c(c(=O)n(-c3ccc(C)cc3)c(=O)n1CC(=O)Nc1cc(C)ccc1C)n2C | -10% | 3%
CCCN(CCC)CCCNC(=O)c1cn(CC)c2ccc(S(=O)(=O)N3CCc4ccccc4C3)cc2c1=O | -17% | -10%
CCOc1cccc(NC(=O)C2CC(=O)N(C)C(=Nc3cccc(OC)c3)S2)c1 (stereo not given) | -8% | -15%
CCCCCn1nc(C(=O)Nc2ccccc2Cl)c2ccccc2c1=O | -6% | -1%
COc1cc(C2CC(=O)Nc3c2sc(C(=O)O)c3-c2ccc(F)cc2)cc(OC)c1OC (stereo not given) | 0% | -3%
Cc1cn2c(=O)cc(COC(=O)c3cccc(NC(=O)c4ccccc4Cl)c3)nc2s1 | -10% | -23%
COc1ccc(OC)c(NC(=O)CSc2ncc3c(n2)-c2ccccc2N(C)S3(=O)=O)c1 | 4% | -20%
CCCCn1c(=N)c(S(=O)(=O)c2ccccc2)cc2c(=O)n3cccc(C)c3nc21 | 3% | -11%
O=C(NCc1ccc(Cl)cc1)c1cc2ccccc2oc1=O | -16% | -1%
COC(=O)c1cnn(-c2ccc(C(=O)Nc3ccc(C(C)=O)cc3)cc2)c1N | -9% | -6%
Cn1cc(S(=O)(=O)c2ccccc2)c(=O)c2cc(F)c(N3CCOCC3)cc21 | 6% | 0%
O=C(c1cccc([N+](=O)[O-])c1)N1c2ncnn2C2(CCCCC2)[C@@H]2CCCC[C@@H]21 | -12% | -17%

Rewritten with two lines to a compound: entries from further up
Results follow in this order: 2A Renilla	StopGo FLuc
- CCCCCn1nc(C(=O)Nc2ccccc2Cl)c2ccccc2c1=O
 : -6%	-1%
- Cn1nnnc1SCCNCc1cc(Br)ccc1OCc1ccccc1Cl
 : u	u
- COc1cc(C2CC(=O)Nc3c2sc(C(=O)O)c3-c2ccc(F)cc2)cc(OC)c1OC (stereo not given)
 : 0%	-3%

Remaining list, next part.
SMILES | 2A Renilla | StopGo FLuc
CN(CC(=O)NCc1ccco1)C(=O)CSc1nc2ccccc2o1 | -10% | 67%[activator]
CC(C)(C)C1CCC(C(=O)N/N=C/c2ccc(Cl)s2)CC1 (stereo not given) | 9% | 9%
CC(C)n1nc(C(=O)OCc2nc(N)nc(Nc3ccccc3)n2)c2ccccc2c1=O | 38%[activator] | 35%[activator]
CC(=O)Nc1ccc(-c2csc(NC(C)(C)C)n2)c(F)c1 | 16% | -5%
COc1cc(CN(CC(=O)NC(=O)NCC(C)C)C2CC2)ccc1OC(F)F | 11% | -3%
O=C(COC(=O)c1ccc(-c2ccccc2)cc1C(=O)OCC(=O)c1ccccc1)c1ccccc1 | 240%[activator] | 21%
CCOc1ccccc1NC(=O)Cc1c(C)[nH]n(-c2nc(-c3ccccc3)cs2)c1=O | 35%[activator] | 0%
COc1ccc(CCNc2ncnc3c2c(-c2ccccc2)cn3-c2ccc(Cl)cc2)cc1OC | -3% | -3%
COc1ccc(NCc2cc3cc4c(cc3n(CC(=O)Nc3cc(C)cc(C)c3)c2=O)OCO4)cc1 | 4% | 6%
CCCCN1C[C@H](O)[C@@H](O)[C@H](O)[C@H]1CO | -13% | -11%
COc1cc(-c2ccc(C)cc2)nc2ccc(C(=O)NCC(C)O)cc12 (stereo not given) | 26% | 61%[activator]
CCOc1ccc(CNCCSc2nnnn2C)cc1OC | -2% | -10%
CCOc1ccc(Nc2oc(-c3ccccc3Cl)nc2C#N)cc1 | 19% | 43%[activator]
COCCNc1nc2c(c(=O)[nH]c(=O)n2C)n1CCCc1ccccc1 | -6% | 7%
Cc1ccc(-c2cn3c4c(=O)n(C)c(=O)n(C)c4nc3n2-c2cccc(Cl)c2)cc1 | -7% | -11%
Cc1cc(C)c(NC(=O)CSc2nc3c([nH]c4ccccc43)c(=O)n2C)c(C)c1 | -8% | -22%
CCN1CCN(c2ccc(NC(=O)c3ccccc3F)cc2Cl)CC1 | -14% | 130%[activator]
Cc1ccc(C(=O)Nc2ncn(CC(=O)NCc3ccc(F)cc3)n2)cc1 | 3% | 60%[activator]
O=S(=O)(c1ccc(-c2csc(Nc3ccccc3)n2)cc1)N1CCOCC1 | 8% | 19%
CCOC(=O)COc1ccc2c(=O)c(Oc3ccccc3OCC)c(C)oc2c1 | 6% | -1%
CC(CNC(=O)c1ccc2nccnc2c1)c1ccccc1 (stereo not given) | 0% | 150%[activator]
COc1cc(-c2cc3n(C)c(C)c(CCC(=O)O)c(=O)n3n2)cc(OC)c1OC | 5% | -1%
Cc1ccc(NC(=O)C(=O)NCC(c2cccnc2)N2CCOCC2)cc1 (stereo not given) | -14% | -14%
Cc1ccc(C)c(COC(=O)c2cc(S(=O)(=O)N3CCCCC3)ccc2N2CCOCC2)c1 | 29% | -8%
Fc1ccc(-c2csc(-c3cccnc3)n2)cc1 | 8% | 156%[activator]

Of the compounds above, these have a COOH group:
SMILES | 2A Renilla | StopGo FLuc
O=C(O)c1ccc(N2CCOCC2)nc1 | 0% | -7%
O=C(O)c1[se]c2ccccc2c1Br | -10% | 0%
COc1cc(C2CC(=O)Nc3c2sc(C(=O)O)c3-c2ccc(F)cc2)cc(OC)c1OC (stereo not given) | 0% | -3%
COc1cc(-c2cc3n(C)c(C)c(CCC(=O)O)c(=O)n3n2)cc(OC)c1OC | 5% | -1%

Next part.
SMILES | 2A Renilla | StopGo FLuc
COc1ccc(-n2cc(C(=O)N(CCN(C)C)Cc3ccccc3)c3ccccc3c2=O)cc1 | 0% | -11%
O=C(Cn1cnc2c(nc3n2CCCCC3)c1=O)Nc1cccc(C(F)(F)F)c1 | -12% | -13%
COc1ccc(C2/C(=C(\O)c3ccc(C)cc3)C(=O)C(=O)N2CCCO)cc1 (stereo not given) | -8% | -1%
N#Cc1cccc(NC(=O)CCc2cccs2)c1 | 5% | 0%
COC(=O)c1ccc(NC(=O)CSc2ccc(-c3sc(-c4ccccc4)nc3C)nn2)cc1 | -7% | 8%
COCCn1c(=O)c2c(nc(-n3nc(C)cc3C)n2Cc2ccccc2F)n(C)c1=O | -5% | -11%
COc1cc(CNC(=O)c2ccc(Br)o2)ccn1 | -2% | 21%
CC(C)Oc1ccc(C2CC(=O)NC3=C2C(=O)CC(C)(C)C3)cc1 (stereo not given) | 25% | 25%
COc1cc(NC(=O)c2cc(=O)c3ccccc3o2)cc(OC)c1OC | 52% | 0%
N#Cc1c(N)nc(CCc2ccccc2)c(C#N)c1N | -3% | 60%[activator]
O=C1CC(c2ccc(F)cc2F)c2cc3c(cc2N1)OCO3 (stereo not given) | 2% | 13%
O=C(NCc1ccccc1Cl)c1cc(-c2ccccc2)n[nH]1 | 52%[activator] | 48%[activator]
COc1ccc(C(=O)Nc2nc3c(s2)CCc2cc(OC)ccc2-3)cc1 | u | u
COc1ccc(NS(=O)(=O)c2ccc(C)c(C(=O)Nc3ccc4oc(C)nc4c3)c2)cc1 | 0% | 6%
Cc1ccc(CN(Cc2ccco2)C(=O)c2ccccc2Br)o1 | 33%[activator] | -17%
COc1ccc(-c2noc(CSc3nnc(C)n3-c3ccc(C)c(C)c3)n2)c(OC)c1 | -10% | 5%
CCOC1CCN(C(=O)c2cc(-c3ccncc3)nc3ccccc23)CC1 | 19% | 22%
O=C(c1c[nH]c2ccccc12)C(NCc1ccccc1)c1ccccc1 (stereo not given) | 35%[activator] | 0%
COc1cccc(Nc2ncnc3c2cnn3-c2ccccc2)c1 | 17% | 208%[activator]
COc1ccccc1NC(=O)c1c(-c2ccc(C)cc2)nnc2ccccc12 | -3% | 39%[activator]
CCOc1ccc(-n2ccnc2SCC(=O)Nc2cc(C)ccc2C)cc1 | 1% | -5%
CS(=O)(=O)N1CCCN(C(=O)c2cnn(Cc3ccccc3Cl)c2)CC1 | 4% | 5%
N#Cc1ccccc1-c1ccc(C(=O)O)o1 | 0% | 0%
COc1cc(-c2nc(-c3cccc(Br)c3)no2)cc(OC)c1OC | 10% | 50%[activator]
COc1cccc(CSc2nc3ccncc3n2CC(=O)Nc2ccc(OC)c(OC)c2OC)c1 | -6% | -2%

Looked up above.
Entry of `N#Cc1c(N)nc(CCc2ccccc2)c(C#N)c1N` under StopGo FLuc: 60%[activator]
Entry of `N#Cc1ccccc1-c1ccc(C(=O)O)o1` under 2A Renilla: 0%
Entry of `COc1cc(NC(=O)c2cc(=O)c3ccccc3o2)cc(OC)c1OC` under 2A Renilla: 52%

More entries follow:
SMILES | 2A Renilla | StopGo FLuc
CCc1ccc(NC(=O)Cc2c(C)nc3nc(-c4cccs4)nn3c2C)cc1 | -13% | -5%
CCOc1ccccc1C1C(C(=O)Nc2ccccc2)=C(C)Nc2c(C(=O)Nc3ccc(F)cc3)cnn21 (stereo not given) | -8% | -13%
Cc1ccc(-c2cc(C(=O)O)c3ccccc3n2)c(C)c1 | 36%[activator] | 63%[activator]
COc1ccc(C(=O)N2CCN(C(=O)c3cn(C)c4ccccc34)CC2)cc1OC | -2% | 3%
COC(=O)c1ccc(NC(=O)c2c(-c3ccccc3)c(-c3ccccc3)nn(C)c2=O)cc1 | -2% | -20%
CCc1ccc2cc(-c3ccccc3)cn2c1 | 20% | 161%[activator]
Cc1cc2c(c(=O)n1Cc1cccnc1)C(c1ccc(F)cc1)C(C#N)=C(N)O2 (stereo not given) | 3% | -14%
Cc1cc(C)c(C(=O)COC(=O)c2cc(=O)[nH]c3ccccc23)cc1C | 7% | 115%[activator]

Some of the compounds tested; rates above refer to the full screens.
